PrP UTR inh: inhibition of PrP 5' UTR reporter expression; cell-based PrP 5' UTR mRNA reporter, plate reader; inhibition, % (test concentration not listed); actives 0.35% (n = 340,000);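 active = every replicate at 50% or more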;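 note: 0 = median of the neutral control wells; tested in H4 reporter cells; numbers are from one replicate; inactives centre near -14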
Bead autofluor: compound fluorescence in toxin protease inhibitor counterscreen. actives 3.1% (n = 360,000). compound autofluorescence counterscreen, microsphere flow cytometry; stronger effect = higher value. fluorescence intensity (concentration not given with the values);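 active = at least 3 SD above the mean of all compounds, about 16000 in these data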;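 note: 100 nL of 1 mM stock went into each well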
Sa RN4220 lethal: S. aureus RN4220 growth inhibition; OD600, 16 h; inhibition, % (no concentration beside the values); actives 0.33% (n = 330,000); AID 1259311;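 active = z-score of -3 or lower and OD600 up to 0.18 on both plates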;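 note: plate controls were untreated cells for no effect and reference antibiotic for full effect; stock transfer was 100 nL into about 80 µL; one replicate is shown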
ugtP null kill: compounds lethal to S. aureus RN4220 ugtP deletion mutant; OD600 growth, 16 h; some inactives read as strong as hits; growth inhibition, % (test concentration not listed); actives 0.54% (n = 330,000); AID 1259309;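 active = z-score under -3 and OD600 up to 0.15 on both plates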;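 note: plate controls were untreated wells for no effect and antibiotic for full effect; wells of about 80 µL received 100 nL stock; the first replicate is given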
Mtb hypoxia rep: reduces hypoxia-regulated biosensor signal in M. tuberculosis; actives 0.1% (n = 300,000); fluorescence inhibition, % (concentration not given with the values); M. tuberculosis hypoxia-regulated fluorescent reporter, fluorescence;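 active = 35 to 45% if threefold the growth effect, above 45% if 1.5-fold the growth effect; inactive = the rest, general growth blockers included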;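 note: wells of about 50 µL received 100 nL stock; 0% = vehicle wells and 100% = reference inhibitor wells; whole bacteria with a GFP reporter of the hypoxia response; strong numbers were not always called active; many hits fall short of the cut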
BJeLR viability: BJeLR cell viability loss; BJeLR (HRASV12) viability, CellTiter-Glo ATP luminescence, 48 h; reference of the scale not given here; inhibition, % (test concentration not listed); actives 0.17% (n = 300,000);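 active = replicate mean above 50%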;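 note: 50 nL library stock added to about 25 µL; numbers are from one replicate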
Mtb hypoxia rep growth: recorded beside Mtb hypoxia rep, whose call it bears; growth inhibition, %; measured here: M. tuberculosis growth (absorbance);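 0% = vehicle and 100% = reference antibiotic; read after six days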
Starred values were filed as active, the others as inactive; . = no result given; & = joins results of further samples.

SMILES | PrP UTR inh | Bead autofluor | Sa RN4220 lethal | ugtP null kill | Mtb hypoxia rep | Mtb hypoxia rep growth | BJeLR viability
COc1cc(C2C(C(=O)c3cc4ccccc4o3)=C(O)C(=O)N2c2cc(C)on2)cc(OC)c1OC (centres undefined) | -1 | 5854 | . | . | . | . | 3
COc1ccc(Cl)cc1NC(=O)CC1CCCC1 | -17 | 3154 | 0.5 | -1 | 5 | -4 | -4
CCCn1c(C)cs/c1=N\C(=S)Nc1ccccc1 | -19 | 2073 | . | . | . | . | 2
O=C(O/N=C1/CCCc2occc21)c1ccc(Cl)cc1Cl | -24 | 4430 | . | . | . | . | -6
Cn1c(=O)c2[nH]c(N3CCCCC3)nc2n(C)c1=O | -46 | 4382 | 3.4 | 3 | 0 | 2 | 2
CC(C)(C)c1ccc(C(=O)c2c[nH]c(C(=O)NCCCN3CCOCC3)c2)cc1 | -15 | 5860 | 2.7 | 7 | 6 | 17 | 1
Cc1ccccc1Cn1ccc(NC(=O)CCSc2nc(-c3ccco3)cc(C(F)(F)F)n2)n1 | -49 | 4128 | 9.9 | 8 | . | . | -3
Cc1ccc(NC(=O)c2c(F)cccc2Cl)cc1NS(C)(=O)=O | -21 | 3980 | 2.4 | 3 | 2 | 8 | -4
N#C/C(=C/c1ccc(-c2ccc(S(N)(=O)=O)cc2)o1)C(=O)Nc1ccccc1 | -31 | 2461 | 13 | -2 | 2 | 5 | -12
COc1ccc(OC)c(S(=O)(=O)N(C)CC(=O)O)c1 | -22 | 4778 | 1.9 | -6 | . | . | 5
CC(=O)Nc1ccc(C(=O)NNC(=O)c2cccc(C)c2)cc1 | -21 | 3252 | 3.5 | 9 | 11 | 18 | -3
CCC(=CC(=O)c1ccncc1)Nc1ccc(Br)cc1 | . | . | 4.3 | -2 | 9 | 1 | .
NC(=O)C1CCN(C(=O)CSc2ccccn2)CC1 | -14 | 10401 | 5.0 | 8 | 5 | 5 | 2
CSc1nc2sc3c(c2c(=O)[nH]1)CCCC3 | -18 | 2487 | 9.4 | -13 | 4 | 6 | -11
CC(=O)NS(=O)(=O)c1ccc(N/C(N)=N/c2nc(C)cc(C)n2)cc1 | -4 | 3914 | 2.3 | 7 | 5 | 3 | 0
CC(C)(C)NC(=O)NC(=O)CN1CCN(S(=O)(=O)c2ccc3c(c2)OCCO3)CC1 | -17 | 3552 | 1.1 | -2 | -5 | 5 | -2
COc1ccccc1NC(=O)C1=C(C)NC(=O)NC1c1ccccc1F (centres undefined) | -14 | 5294 | 4.2 | -5 | 1 | 4 | .
Cc1ccc(C(=O)Nc2ccc(N3CCCC3)cc2)cc1 | -47 | 4216 | 9.0 | -2 | 11 | -2 | 4
O=C(Nc1nc(-c2nc3ccccc3s2)cs1)c1ccco1 | -31 | 5906 | 0.4 | -3 | 5 | 1 | -4
Cc1nc2ccccc2c(=O)n1NC(=O)Nc1ccccc1 | -12 | 10755 | 0.7 | 3 | 2 | 6 | 1
O=C(NCc1ccco1)c1ccc2c(=O)n(CC3CCCO3)c(=S)[nH]c2c1 (centres undefined) | -66 | 4946 | 3.2 | 5 | . | . | -4
Cn1nc(-c2ccccc2)c(-c2nc(-c3ccc(Cl)cc3)no2)c1Cl | -9 | 4684 | -6.5 | -2 | . | . | -3
CC(C)OP(=O)(OC(C)C)C(Nc1ccccc1)c1cccc([N+](=O)[O-])c1 (centres undefined) | . | 3592 | 0.8 | -3 | 13 | 0 | 2
CCOc1cc(C)c(Cl)cc1S(=O)(=O)N(CC)CC | -13 | 4270 | 4.8 | -3 | . | . | -4
COc1ccc(C(=O)CN2C3=NCCCN3c3ccccc32)cc1OC | -11 | 2030 | 3.9 | 3 | 2 | 5 | -6
CN(CC(=O)NCC1CCCO1)S(=O)(=O)c1cc(Cl)ccc1Cl (centres undefined) | -12 | 4150 | 3.0 | 5 | . | . | -11
O=C(/C(Br)=C/Nc1cc(Cl)ccc1Cl)C(F)(F)F | -6 | 2164 | 15 | -4 | 5 | 1 | -5
CC1CCCCC1NC(=O)C1CCN(S(=O)(=O)c2cccc3nonc23)CC1 (centres undefined) | -12 | 3865 | -0.2 | 4 | 2 | 2 | -3
O=C(NCC1CCCO1)c1cc([N+](=O)[O-])ccc1Cl (centres undefined) | -26 | 2194 | 3.9 | 4 | 0 | 6 | 5
CCc1cc(C(=O)N2CCCC(CNS(=O)(=O)c3cccs3)C2)n(C)n1 (centres undefined) | -4 | 3432 | -0.8 | 7 | 8 | 2 | -4
Cc1ccc(S(=O)(=O)NCCOc2cc(C)ccc2C)cc1 | -4 | 4852 | 5.1 | 5 | 7 | 0 | -3
Cn1c(=O)c2c(ncn2CCC(=O)NN=Cc2cccnc2)n(C)c1=O | . | . | 1.5 | 4 | -4 | -6 | .
CCOC(=O)C1C(C(=O)OC)=C(c2ccc(OC)cc2)c2ccc(OC)cc2N1S(=O)(=O)C(F)(F)F (centres undefined) | -41 | 3220 | 5.5 | 7 | 5 | 3 | .
CC(C(=O)N1CCOCCOCCOCC1)N1C(=O)c2ccccc2C1=O (centres undefined) | -9 | 1906 | 1.1 | 4 | 0 | 5 | 0
CCCCC(=O)Nc1cccc2c1C(=O)N(c1ccccc1)C2=O | -17 | 3044 | 4.3 | 0 | 10 | 9 | 7
O=C(O)c1ccc(NS(=O)(=O)c2ccc3nnn(O)c3c2)cc1 | -4 | 2687 | 4.0 | 2 | 7 | 6 | 11
CC(C)c1cc(NCC2CCCO2)n2c(nc3ccccc32)c1C#N (centres undefined) | -10 | 4052 | -3.0 | -16 | -5 | 7 | -13
COC1(OC)C(/C=C/c2ccc(Cl)cc2)C(C#N)(C#N)C1(OC)OC (centres undefined) | -16 | 2956 | . | . | . | . | 0
O=C(CN1CCN(C(=O)c2cccs2)CC1)NC1CCCCC1 | -5 | 2434 | 0.2 | -1 | . | . | -12
O=C(Nc1ccccc1)c1cc(S(=O)(=O)Nc2cccnc2)ccc1Cl | -15 | 6525 | . | . | . | . | -3
CC(C)c1ccc(/C=C/C(=O)N2CCCCCC2)cc1 | -25 | 2565 | 9.8 | -2 | 1 | 13 | 2
CCOC(=O)Cn1cc(C(=O)OC)c2ccccc21 | -16 | 9110 | 3.6 | 0 | 5 | 11 | -4
Cc1cc2c(cc1C)NP(=S)(c1ccccc1)N2 | -41 | 3642 | 0.2 | -3 | 15 | 11 | .
COc1ccc(C(CNC(=O)c2cc(S(=O)(=O)N3CCCCC3)ccc2C)N2CCCC2)cc1 (centres undefined) | 3 | 19413* | -0.4 | -2 | -4 | 9 | .
Cc1ccc2oc(=O)n(CCCOc3ccccc3)c2c1 | -19 | 8739 | 2.5 | -5 | -1 | 12 | 4
COc1ccc(C2(c3cccc(O)c3OC)CCN(C(C)=O)CC2)cc1O | -7 | 3936 | 4.7 | 1 | 7 | -1 | -2
Cc1ccc(NC(=S)NCc2ccc3c(c2)OCO3)cc1C | -10 | 1985 | -1.6 | 3 | 20 | 2 | 13
CCOC(=O)c1nn(-c2ccc(C)cc2)c(=O)cc1OCC(=O)Nc1cccc(OC)c1 | -10 | . | 7.0 | 2 | 4 | -2 | 2
Cc1ccc(N(CC(=O)N2CCN(c3ccc(F)cc3)CC2)S(=O)(=O)c2c(C)nn(C)c2C)cc1 | -15 | 4619 | 20 | 20 | 4 | 4 | -10
C#CCOCCOCCOCCNc1nc(N2CCN(C(=O)CCCCCCCCCCNC(=O)Cn3cc(CC(C)O)nn3)CC2)nc(N2CCN(C(=O)CCCCCCCCCCNC(=O)C(CCC(=O)O)n3cc(CCCCCN)nn3)CC2)n1 (centres undefined) | . | . | 8.4 | 10 | 13 | 12 | .

Other compounds.
SMILES | PrP UTR inh | Bead autofluor | Sa RN4220 lethal | ugtP null kill | Mtb hypoxia rep | Mtb hypoxia rep growth | BJeLR viability
Cc1ccc(CC2CC(=O)N(CCc3ccc4c(c3)OCO4)C2=O)cc1 (centres undefined) | -21 | 2814 | -9.6 | 4 | 5 | 5 | 0
CC1CCCN(C(=O)CCNS(=O)(=O)c2ccc(Br)cc2)C1 (centres undefined) | -21 | . | 2.1 | -3 | -8 | -8 | -7
O=C(O)CC1S/C(=N/N=Cc2ccc(-c3ccc(Cl)cc3[N+](=O)[O-])o2)NC1=O (centres undefined) | . | . | 3.4 | 2 | 5 | 8 | .
O=[N+]([O-])c1ccc(S(=O)(=O)Nc2ccc(-c3ccc(N4CCCC4)nn3)cc2)cc1 | -23 | 5904 | 6.2 | 3 | 7 | 4 | 3
C=CCOc1c(Br)cc(C2C3=C(CCCC3=O)N(C)C3=C2C(=O)CCC3)cc1OCC | -14 | 9396 | -2.2 | 2 | -3 | 2 | 0
CCn1ncc(/C=N/N=C2\CCC3C4CCc5cc(O)ccc5C4CCC23C)c1C (centres undefined) | -11 | 4663 | . | . | . | . | -2
CCSc1ncc(C#N)c(N)n1 | -15 | 4890 | 6.0 | 7 | . | . | 9
C=CCCCCCCCCC(=O)Nc1ncccn1 | . | 4765 | 2.7 | 7 | 0 | 10 | 9
CCc1nnc(NC(=O)CSc2ccc(-c3ccc(C)cc3)nn2)s1 | -25 | 4413 | 2.8 | 1 | -1 | -2 | -2
CS(=O)(=O)N1CCCC(C(=O)N2CCOCC2)C1 (centres undefined) | -14 | 9540 | 1.8 | 4 | 12 | 6 | 3
COc1ccc(CN(CC2CCCO2)S(=O)(=O)c2ccc(-n3cnnn3)c(OC)c2)cc1 (centres undefined) | -15 | 3565 | -4.2 | -9 | -3 | 7 | -1
Cc1ccccc1CSc1nnc(C)n1N | -24 | 11508 | 3.3 | 3 | 1 | 9 | 8
N#CCCN1CCN(S(=O)(=O)c2ccc(S(=O)(=O)N3CCOCC3)cc2)CC1 | -3 | 6208 | 2.2 | 11 | . | . | -5
CCN1CCN(Cc2ccc(NC(=O)Nc3ccc(SC)cc3)cc2)CC1 | -55 | 5324 | -1.5 | 4 | . | . | 9
Cc1cc(Cl)ccc1OCCCC(=O)NNC(=O)c1ccncc1 | 14 | 2971 | 9.0 | 16 | . | . | .
COC(=O)[C@@H]1CCCN1Cc1nc(Cc2ccccc2F)no1 | -14 | 4390 | 3.8 | 4 | 8 | 7 | -7
CC(C)(C)c1ccc(C(=O)Nn2cnnc2)cc1 | -47 | 4015 | 5.2 | 3 | 8 | 14 | 0
CC(=O)c1ccc(N2CCN(S(=O)(=O)c3csc(C(N)=O)c3)CC2)cc1 | -24 | 5243 | 3.5 | 3 | -4 | 1 | -6
CCN(CC)C(=O)C(=O)c1cn(CC(=O)NCc2ccc3c(c2)OCO3)c2ccccc12 | 5 | 4834 | 9.7 | 6 | 8 | 11 | -20
COc1ccc(NC(=O)Cn2ccc3c(OC)cccc3c2=O)cc1 | -13 | 5024 | 2.5 | -1 | 8 | 8 | 5
Cc1cc(C(=O)Nc2ccc3c(c2)OCCO3)ccc1[N+](=O)[O-] | 25 | 3965 | -2.8 | -1 | 1 | 12 | -6
CCOC(=O)N1CCN(C(=O)COC(=O)c2ccc(O)cc2O)CC1 | 2 | 4408 | 1.5 | 2 | 4 | 12 | 9
CC(N=c1ccccn1C(=O)Nc1ccc(Cl)cc1)c1ccco1 (centres undefined) | . | . | 2.4 | -4 | 12 | 8 | -6
C=CCOC(=O)C1=CC(c2coc3ccccc3c2=O)C(CCCO)C(OCC)O1 (centres undefined) | . | . | 3.3&5.6 | 1&5 | 6&13 | 4&10 | .
O=C(Nc1nc2ccccc2[nH]1)c1ccccc1[N+](=O)[O-] | -51 | 3936 | . | . | . | . | -7
Cc1ccc(C(=O)NCc2cccnc2)cc1S(=O)(=O)Nc1ccccc1 | -24 | 2202 | 2.5 | 0 | -5 | -3 | 5

Source: PubChem
